Screening data (PubChem)
Biofilm kill mix: mixture kills Candida albicans biofilm cells | inhibition, % at 7.6 µM | 0.02% of 120,000 active | C. albicans biofilm persisters + clotrimazole, fluorescence viability; primary screen in compound mixtures of four per well;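 active = inhibition above 30.3% in the primary screen of four-compound pools, then above 30% when the compound was retested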;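 note: compounds exposed to preformed 24 h biofilms for 48 h; the number belongs to the whole pool; some results filed as inactive read as strong as hits; inactives centre near 12; 0% = biofilm with clotrimazole alone and 100% = kill control; retested singly at about 60 µM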
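Test system: C. albicans biofilms. Buffer or medium: RPMI/MOPS medium, pH 7.0. Timing: 48 h compound exposure at 37 °C. Technique: Alamar Blue fluorescence. Evaluation: percent inhibition of biofilm viability.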
* = called active by the depositor.

Start of the listing, in advance:
SMILES	Biofilm kill mix
CCOC(=O)c1cc(C#N)c(N2CCNCC2)nc1C(F)(F)F	3
O=C(COc1ccc(Cl)c(Cl)c1)NN1C(=O)C2C(C1=O)C1C=CC2C12CC2 (centres undefined)	11
CCCC1c2ccsc2CCN1C(=S)NC (centres undefined)	10
CC1CCN(C(=O)C2CCC(C)(C(=O)O)C2(C)C)CC1 (centres undefined)	11
CC(C)C(=O)NCc1cc(-c2ccccc2)no1	14
C=CCSc1ncc(C(=O)OCC)c(N)n1	0
Cc1ccccc1-n1c(O)c(/C=C/C=Nc2ccccc2)c(=O)[nH]c1=O	17

All compounds of this part (from the top)
SMILES	Biofilm kill mix
CCOC(=O)c1cc(C#N)c(N2CCNCC2)nc1C(F)(F)F	3
O=C(COc1ccc(Cl)c(Cl)c1)NN1C(=O)C2C(C1=O)C1C=CC2C12CC2 (centres undefined)	11
CCCC1c2ccsc2CCN1C(=S)NC (centres undefined)	10
CC1CCN(C(=O)C2CCC(C)(C(=O)O)C2(C)C)CC1 (centres undefined)	11
CC(C)C(=O)NCc1cc(-c2ccccc2)no1	14
C=CCSc1ncc(C(=O)OCC)c(N)n1	0
Cc1ccccc1-n1c(O)c(/C=C/C=Nc2ccccc2)c(=O)[nH]c1=O	17
O=[N+]([O-])c1ccc2c(c1)c(-c1ccccc1)nc1nncn12	12
CN(C)c1cccc2c1c(NC(=O)Nc1ccccc1)nn2C	16
Cc1cc(C(=O)N/N=C/c2ccc(Cl)c([N+](=O)[O-])c2)c(C)n1-c1ccc(F)cc1	15
COc1ccccc1CCNC(=O)CSc1ccc(-c2ccco2)nn1	12
CSc1n[nH]c(NCc2ccc(Cl)cc2)n1	14
O=C(N/N=C\C=C\c1ccc2c(c1)OCO2)C1COc2ccccc2O1 (centres undefined)	4
CC(C)(C)c1ccc(CSc2nnc(-c3ccccc3NC(=O)c3ccccc3)o2)cc1	10
O=C(COC(=O)c1ccccc1Br)NCCN1C(=O)CSC1=O	6
Cc1noc(N)c1C1(O)C(=O)N(C(C)C)c2ccccc21 (centres undefined)	7
COc1cc(OC)cc(C(=O)Nn2cc(C(=O)Nc3ccc(F)cc3F)c3ccccc3c2=O)c1	16
CCOc1ccc(C(C)=O)cc1CN1C(=O)NC2(CCCCCCC2)C1=O	14
CC(=O)NC(=S)Nc1ccc(S(=O)(=O)Nc2ncccn2)cc1	37
CCOc1ccc(N2CCCn3c2nc2c3c(=O)n(CCc3ccccc3)c(=O)n2C)cc1	11
O=C(Oc1cccc(N2C(=O)CCC2=O)c1)c1ccccc1	9
Cn1c(=O)c2[nH]c(CNc3ccc(C(=O)O)cc3)nc2n(C)c1=O	15
COc1cc(OC)cc(C(=O)NCC(=O)OCC(=O)N2CC(C)CC(C)C2)c1 (centres undefined)	14
CC1=NNC(=O)C1CCC(=O)N/N=C/c1ccc(Cl)cc1 (centres undefined)	10
CC(C)(C)C(=O)NC(=S)N1CCCC1	16
Cc1ccc2nc(NNC(=O)c3ccc(S(=O)(=O)N4CCc5ccccc5C4)cc3)sc2c1	-2
CCOC(=O)/C(=N\Nc1ccccc1Cl)N1CCN(c2ccccc2OC)CC1	9
O=C(Nc1ccccc1N1CCOCC1)c1cccs1	14
CC(C)C[C@@H]1NC(=O)[C@H](Cc2ccc(O)cc2)NC(=O)c2cc([N+](=O)[O-])cc(I)c2NCCC[C@@H](C(N)=O)NC1=O	13
COc1ccc(C)cc1-n1c(SCC(=O)Nc2cc(C)on2)nc2ccccc2c1=O	-18
COc1ccc(C(=O)NC(=S)N2CCCCC2)cc1[N+](=O)[O-]	11
CC(=O)OCC(=O)Nc1cc(S(=O)(=O)N2CCCCCC2)ccc1Cl	-2
CCOc1ccc(-c2nnn(CC#N)n2)cc1OC	15
O=C(CNCCc1ccc(Cl)cc1Cl)NCc1ccco1	19
O=C(c1ccc(S(=O)(=O)c2ccccc2)cc1)N1CCc2ccccc2C1	16
Cc1n[nH]c(C)c1NC(=O)c1cc([N+](=O)[O-])ccc1Cl	11
CCOC(=O)C1=C(C)NC(C)=C(C(=O)OCC)C1c1ccc(C)o1	16
CC(=O)OC(C(=O)NC1CCCCC1)c1cccc(F)c1 (centres undefined)	25
Cc1cccc2sc(NNC(=O)c3ccc(S(=O)(=O)N4CC(C)CC(C)C4)cc3)nc12 (centres undefined)	17
Cc1ccccc1NC(=S)N1CCCN(Cc2ccc(F)cc2)C1	32

Laid out differently: four of the compounds above.
Cc1cccc2sc(NNC(=O)c3ccc(S(=O)(=O)N4CC(C)CC(C)C4)cc3)nc12 (centres undefined)
  Biofilm kill mix = 17

O=C(CNCCc1ccc(Cl)cc1Cl)NCc1ccco1
  Biofilm kill mix = 19

COc1ccc(C(=O)NC(=S)N2CCCCC2)cc1[N+](=O)[O-]
  Biofilm kill mix = 11

O=C(c1ccc(S(=O)(=O)c2ccccc2)cc1)N1CCc2ccccc2C1
  Biofilm kill mix = 16

Next section.
SMILES	Biofilm kill mix
O=C(CN1CC(c2ccccc2)CC1=O)Nc1ccc2c(c1)OCO2 (centres undefined)	17
COc1ccc(/C=C2\SC(=S)N(CCCC(=O)NNC(=O)c3ccccc3O)C2=O)cc1	24
O=C(Nc1ccc(O)cc1)c1cccc(Oc2ccc([N+](=O)[O-])cc2)c1	6
CC[C@]12CCCN3CCc4c(n(c5ccccc45)C(=O)C1)C32 (some centres undefined)	10
CSc1ccc(CN2CCC(CO)(Cc3ccc(Cl)cc3)CC2)cc1	9
NNC(=O)c1cnn(Cc2ccccc2)c1N	4
O=[N+]([O-])c1cccc(/C([O-])=C(/C(=S)Nc2ccccc2F)[n+]2ccccc2)c1	9
Cn1c(SCC(=O)c2ccc(F)cc2)nnc1-c1ccccn1	11
CCOC(=O)c1oc2c(CN3CCN(C)CC3)c(O)ccc2c(=O)c1-c1ccc(Br)cc1	-5
O=C(CSc1ccc(-c2ccco2)nn1)NCc1ccc(F)cc1	14
N=C1C(c2nc(-c3ccc(Cl)cc3)cs2)=C(O)CN1NC(=O)c1ccc(O)cc1	18
O=C(NCc1ccccn1)c1ccc(-c2ccccc2)cc1	9
Cc1ccc(-c2cc(C(=O)Nc3cc(C)ccc3C)[nH]n2)c(O)c1	6
O=C(/C=C\c1ccccc1)Nc1nccs1	-4
CC(C)OP(=O)(OC(C)C)C(Nc1ccccc1)c1ccc2c(c1)OCO2 (centres undefined)	19
Cn1c(=O)c(C(=O)CN2CCN(S(=O)(=O)c3ccccc3)CC2)c(N)n(Cc2ccccc2)c1=O	3
O=C(C[n+]1ccc2ccccc2c1)c1ccc(NC(=O)c2ccccc2)cc1	8
O=c1[nH]c(CN2CCN(Cc3ccc4c(c3)OCO4)CC2)nc2ccccc12	16
CC(=O)c1cccc(NC(=O)NNC(=O)c2ccc(Cl)cc2Cl)c1	5
COc1ccc(CCNC(=O)CN2CCN(Cc3ccccc3F)C2=O)cc1OC	30
Cc1cccc(C)c1NC(=S)/C(=C(\[O-])c1cccs1)[n+]1ccccc1	14
Cc1ccc(C(=O)NNC(=O)CCC(=O)Nc2cc(C)on2)cc1	16
COc1ccccc1-c1ccc(=O)n(CC(=O)NCC2CCCO2)n1 (centres undefined)	32
CCc1ccc(/C=C/c2c[nH]c3ccccc23)[n+](CC)c1	9
Cc1ccc(-n2cccc2/C=C2\C(=N)N3N=C(c4ccco4)SC3=NC2=O)cc1	23
CN(CCCNC(=O)c1cc2c(Cl)nc3ccccc3c2s1)Cc1ccccc1	14
Nc1nc(Cl)cc(N2CCCC2)n1	10
COc1ccccc1/C=C/C1(C(=O)NC2CCCC2)CC(=O)N1c1ccc(F)cc1 (centres undefined)	14
Cc1ccccc1COc1ccc(/C=C(\C#N)C(N)=O)cc1	-4
O=C(COC(=O)/C=C/c1ccc(F)cc1)Nc1ccccc1-c1ccccc1	13

(further entries)
SMILES	Biofilm kill mix
CC1CC(C)CN(C(=O)CSCC(=O)O)C1 (centres undefined)	16
O=C1C=C(NCc2ccccc2)CCC1	9
CCOC(=O)c1ccc(S(=O)(=O)N(CCO)Cc2cc3cc(OC)c(OC)cc3[nH]c2=O)cc1	23
CCC(=O)NC(c1ccc(OC)cc1)c1cc(Cl)c2cccnc2c1O (centres undefined)	4
Cc1cc(/C=C2/NC(=O)N(Cc3ccccc3F)C2=O)c(C)n1-c1ccccn1	16
Clc1ccc(-c2nc(N3CCCCC3)nc3ccccc23)cc1	15
COCCCNC(=O)c1ccccc1Sc1ccc(NC(C)=O)nc1	24
CCSc1nnc(NC(=O)CSc2nc3c(c(=O)n2-c2ccccc2)SCC3)s1	9
O=C(Nc1cc(N2CCOCC2)ncn1)NC1(C(F)(F)F)Oc2ccccc2O1	13
CCN(CC)c1ccc(/C=C(\C#N)C(N)=O)cc1	4
O=C(COc1ncnc2sccc12)N1CCN(c2ccccc2)CC1	16
CN(CC1COc2ccccc2O1)C(=S)Nc1ccccc1F (centres undefined)	6
CCOC(=O)c1sc2nc(CSc3ccccc3)nc(NCCN(C)C)c2c1C	11
Cc1ccc2nc(NC(=O)C3CCN(S(=O)(=O)c4cccc5nsnc45)CC3)sc2c1	5
COc1ccc(NC(C)=O)cc1NC(=O)CCn1c(=O)sc2ccccc21	-5
CCOc1ccc(NC(=O)[C@@H](NC(=O)OCc2ccccc2)[C@@H](C)CC)cc1	3
C=CCc1cc(Cl)ccc1OCCOCCNCCOC	8
Cc1c(-c2ccnc3cc(C(=O)O)nn23)cnn1C	-18
COc1ccc(-n2cc(-c3ccccc3)c3c(N4CCOCC4)ncnc32)cc1	14
Cc1ccc(S(=O)(=O)NCCC(=O)Nc2cccc(Cl)c2)cc1	18
C/C(=C/c1ccccc1)C(=O)N1CC(C)OC(C)C1 (centres undefined)	22
S=C(Nc1ccccc1Cl)N(CCCN1CCOCC1)Cc1ccccn1	20
COc1cccc(NC(=O)C2(S(=O)(=O)c3ccc(Cl)cc3)CC2)c1	15
Cc1cc(/C=N/NC(=O)c2cccs2)c(C)n1-c1cnccn1	16
N#Cc1ccc(/C=C\c2nccc3c2[nH]c2ccccc23)cc1	11
CC(=O)c1c(C)[n+]([O-])c2ccc3c(non3O)c12	19
COc1cc(NC(=O)c2cccs2)c(C(=O)OCC(=O)c2cc(C)n(-c3ccc(F)cc3)c2C)cc1OC	8
C=CCCCCc1nc2ccccc2c(=O)n1N	16
C[C@@H]1Cc2c(O)c(O)cc(O)c2C(=O)O1	-2
COc1ccccc1C(=O)NCC(=O)N/N=C/c1ccc([N+](=O)[O-])cc1	-8
CCOC(=O)C1=C(c2ccccc2)NC(=O)NC1c1cc(Br)c(O)c(OC)c1 (centres undefined)	5
Cc1ccccc1C(=O)c1cccn1CC(=O)NCc1ccc(Cl)cc1	25

Some of the entries above, reformatted.
N#Cc1ccc(/C=C\c2nccc3c2[nH]c2ccccc23)cc1
  Biofilm kill mix: 11

CC(=O)c1c(C)[n+]([O-])c2ccc3c(non3O)c12
  Biofilm kill mix: 19

Following part:
SMILES	Biofilm kill mix
CC(C)c1ccc(NC(=S)NC2CCCCCC2)cc1	12
CCC1(C(=O)c2ccc(Cl)cc2)C2c3ccccc3OC(=O)C21C(=O)Nc1ccccc1 (centres undefined)	4
O=C(C[n+]1ccccc1)N/N=C/c1ccc(O)cc1	28
CCC1C(=O)N=C(SCC(=O)NC2CCCCC2)NC1=O (centres undefined)	9
Cc1c(Br)c(C(F)(F)F)nn1CC(=O)NCc1ccccc1	19
CCC1CCc2c(sc(NC(=O)c3cccnc3)c2C(N)=O)C1 (centres undefined)	19
COc1ccc(/C=C2/SC(=O)N(CC(O)Cn3c4ccccc4c4ccccc43)C2=O)cc1 (centres undefined)	25
OCC1CCCCN1C(=S)Nc1ccc(Cl)cc1Cl (centres undefined)	2
Cc1ccc(OCc2ccc(C(=O)NN)o2)cc1C	11
COCCNc1c(-c2ccc(OC)c(OC)c2)nc2ccc(Cl)cn12	26
CC1(C)CC(=O)C=C(Nc2ccc(C(=O)O)cc2)C1	-5
COCCNC(=S)N1CCC(NC(=O)Nc2ccc(C)cc2)CC1	24
Cc1ccc(S(=O)(=O)C2C(=O)N(C)C3(C)CC2c2ccccc2O3)cc1C (centres undefined)	0
Cc1ccc(-c2ccc(C(=O)NCc3ccc(Cl)cc3)o2)c2ccccc12	20
COc1ccccc1NS(=O)(=O)c1cc(NC(=O)c2ccc3c(c2)OCCO3)ccc1C	-3
O=C(NCCCCNC(=O)c1ccc(Cl)s1)c1ccc(Cl)s1	15
CC(=O)NC(NC(=S)N1CCCCCC1)C(Cl)(Cl)Cl (centres undefined)	9
CN1/C(=C\C(=O)c2cccnc2)Sc2ccccc21	17
CCCCCCOc1ccc(N2C(=O)CC(N3CCN(CCN=CC4C(=O)CC(C)(C)CC4=O)CC3)C2=O)cc1 (centres undefined)	16
Cc1nnc(SCCN2CCOCC2)c2nn(-c3ccccc3F)c(C)c12	-2
CC(c1nccs1)N(C)C(=O)CCc1nnc(CCc2ccccc2)o1 (centres undefined)	5
CCOC(=O)NC(=O)CSc1ccc(C)cc1C	11
O=C(c1cccnc1)N1CCC(Oc2ccc(C(=O)N3CCCCO3)cc2)CC1	-8
CCN1/C(=C2\C(=O)N(C)C(=S)N2c2ccccc2)C=Cc2ccccc21	11
CCOc1ccc(C(=O)Nc2ccccc2CC)cc1[N+](=O)[O-]	-1
CNC(=O)NC(=S)NC(=O)c1ccccc1Cl	13
Cc1ccc2nc(/C(C#N)=C\c3ccc(Oc4ccc([N+](=O)[O-])cn4)cc3)[nH]c2c1	15

These rows are one share of the data; the hit share may differ from the screen's.
